# Screens as filed in PubChem BioAssay.
# AID504770: growth inhibition of E. coli YBA685, primary screen, V. cholerae RctB inhibitors; E. coli YBA685 rctB-dependent plasmid, OD600 growth, 3 h; stronger effect = lower value; z-score (test concentration not listed); 130,000 tested, 0.27% active;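 active means z-score under -2 on both plates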;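 further: wells of about 30 µL received 100 nL stock; score is relative to mean and SD of the test wells; the first replicate is given; strong numbers were not always called active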
# CapD inh: Bacillus anthracis CapD inhibitors, primary screen, biochemical, fluorescence intensity | CapD gamma-glutamyltranspeptidase (Bacillus anthracis Ames Ancestor) | purified CapD enzyme, fluorescence intensity read-out; stronger effect = lower value; some hits fall short of the stated cut | z-score (no concentration beside the values) | 140,000 tested, 0.23% active | AID 492967, 2010;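 active means z-score under -4 in either of two replicates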;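 further: stock transfer was 100 nL into about 40 µL; score is relative to mean and spread of the plate; one replicate is shown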
# Starred values were filed as active, the others as inactive; . = not tested or not shown; & = joins results of further samples.
# Start of the data: the first 2 records, ahead of the listing:
SMILES,AID504770,CapD inh
CC(C)=NNC(=S)Nc1ccc(C)cc1C,.,-0.685
O=C1CC(N2CCN(S(=O)(=O)c3ccc(Cl)cc3)CC2)C(=O)N1CCc1ccccc1 (configuration not stated),1.4,.

# Results, repeating the preview:
SMILES,AID504770,CapD inh
CC(C)=NNC(=S)Nc1ccc(C)cc1C,.,-0.685
O=C1CC(N2CCN(S(=O)(=O)c3ccc(Cl)cc3)CC2)C(=O)N1CCc1ccccc1 (configuration not stated),1.4,.
Cc1ccc(-n2ncc3c(=O)n(CC(=O)NCc4ccccc4Cl)cnc32)cc1C,1.2,-0.74
CCCCN1CCC(C#N)(Nc2ccccc2)CC1,0.55,-0.415
Cc1cccc(C(=O)N[C@@H]2C(=O)Nc3c(c(C)nn3C)[C@H]2c2ccccc2)c1,-0.15,.
CN1CC(C(=O)O)CC1=O (configuration not stated),-0.45,.
CC(C)=CCC/C(C)=C/CO,-0.1,-1.26
CN(C)c1ccc(/C=c2\sc3n(c2=O)C(c2ccccc2)C(c2ccccc2)=NN=3)cc1 (configuration not stated),.,46.7
O=C(CN1CCCCC1)NC(=O)NC1CCCCC1,-1.25,.
CCOC(=O)C1=C(C)NC2=C(C(=O)C(C(=O)OCC)C(c3ccccc3OC)C2)C1c1ccc(N(C)C)cc1 (configuration not stated),.,-0.29
CCOC(=O)N1CCN(CC(=O)NC(C)C)CC1,-0.45,.
Cc1noc(C)c1COC(=O)CCc1nc2cc(C(F)(F)F)ccc2n(Cc2ccccc2)c1=O,-0.85,.
COc1cc(S(=O)(=O)Nc2cccnc2)ccc1Cl,-0.65,-0.075
Cc1ccc2c(c1)N(CC(=O)NC1CCCc3ccccc31)C(=O)c1cccnc1O2 (configuration not stated),-0.2,0.185
CC(C)(C)c1ccc(-c2cc3ccccn3c2)cc1,1.9,-0.215
Cc1ccc(S(=O)(=O)N2CC3(C)CN(S(=O)(=O)c4ccc(C)cc4)CC(C)(C2)C3)cc1,-1.6,-0.67
CCN=C1Cn2c(nc3scc(-c4ccccc4)c3c2=O)CN1CC,-0.15,.
Cc1onc(-c2c(Cl)cccc2Cl)c1NC(=O)Oc1ccc(CC#N)cc1,-0.15,1.09
CCCS(=O)(=O)N1CCN(C2CCN(C(=O)OCC)CC2)CC1,-0.95,-0.57
Cc1ccc(S(=O)(=O)N2CCOCC2)cc1C(=O)OCC(=O)N1CCc2ccccc2C1,-0.1,.
CC(=O)N1N=C(c2c(-c3ccccc3)c3cc(Cl)ccc3[nH]c2=O)CC1c1ccco1 (configuration not stated),-0.5,11.1
O=S(=O)(c1cccc(Cl)c1Cl)N1CCN(c2ncccn2)CC1,1.9,.
O=C(c1ccccc1)C1CCN(C(=O)C(F)(F)F)CC1,-0.25,0.47
O=c1c2cnn(CCO)c2ncn1C/C=C/c1ccccc1,0.2,.
OC(COc1ccc(Cl)cc1)CN1CCc2ccccc2C1 (configuration not stated),-0.55,0.075
COC(=O)C1(O)CC(c2ccc(Cl)cc2)=NN1C(=O)c1ccccc1 (configuration not stated),.,-0.255
CC(C)n1c2ccccc2c2nnc(SCC(=O)Nc3nc4c(s3)CCCC4)nc21,0.5,0.155
CCn1c(=O)[nH]c2cc(C(=O)N3CCN(c4ccccc4)CC3)ccc2c1=O,-0.8,1.1
COc1ccc(S(=O)(=O)N2CCCCC2)cc1-c1nnc2c3ccccc3c(C)nn12,0,0.61
NC[C@H]1O[C@H](O[C@H]2C(O[C@@H]3O[C@H](CO)[C@@H](O)[C@H]3O)[C@@H](O)[C@H](N)C[C@@H]2N)[C@H](N)[C@@H](O)[C@@H]1O (some centres not stated),0.3,-1.69
Cc1ccc(NC(=O)COC(=O)c2ccc(S(=O)(=O)NCCC#N)cc2)cc1,-0.05,.
COc1ccc2cc(/C=N/NC(=O)CN3CCOCC3)c(Cl)nc2c1,-1.5,9.52
Cc1ccc(C2(O)CN(c3ccccc3)C3=[N+]2CCS3)cc1 (configuration not stated),.,0.16
CN(C)c1ccc(C2N=C(c3ccc(Cl)cc3)NN2)cc1 (configuration not stated),.,-1.23
CC(C(=O)Nc1ccc(CN2CCOCC2)cc1)n1sc2ccccc2c1=O (configuration not stated),-0.4,-0.68
COc1ccccc1NC(=O)c1nn(-c2cccc(C(F)(F)F)c2)ccc1=O,.,-0.74
COc1ccc(C2NC(=O)c3ccccc3N2)cc1 (configuration not stated),0.45,75.9
Cn1c(-c2ccco2)[n+](C)c2ccccc21,0.25,66.1
COC(=O)c1ccccc1NC(=O)CN(c1ccccc1)S(=O)(=O)N(C)C,1.95,0.575
CCCN(CCC)C(=O)C1CCCN1/C=C/C(=O)C(F)(F)F (configuration not stated),0.2,.

# Record cards (already shown). Order of values: AID504770	CapD inh
# `Cn1c(-c2ccco2)[n+](C)c2ccccc21` as listed: 0.25	66.1
# `CC(=O)N1N=C(c2c(-c3ccccc3)c3cc(Cl)ccc3[nH]c2=O)CC1c1ccco1` (configuration not stated) as listed: -0.5	11.1

# (list continues)
SMILES,AID504770,CapD inh
O=C(O)CN1C(=O)S/C(=C\c2ccc(Br)cc2)C1=O,-1,-0.715
CCN(CC)c1nc2ccccc2[nH]c1=O,-0.2,.
N#Cc1ccc(C(=O)n2nc3c4c(cccc42)C(=O)c2ccccc2-3)cc1,1.05,.
COC(=O)c1ccc(Cn2cnc3c(nnn3-c3cc(C)cc(C)c3)c2=O)o1,-1.2,.
Cc1cc(N2CCOCC2)c2c(N)cc(C)c(C)c2n1,-0.05,-0.305
CCOC(=O)c1c(N2C(=O)CCC2=O)sc(C)c1-c1ccccc1,0.75,0.455
COc1cc(NC2=NCCS2)c(Cl)cc1Cl,0.05,-1.04
O=C1C(=Nc2ccc(C(F)(F)F)cc2)c2ccccc2N1c1ccccc1,.,0.57
CC(C)C(C(=O)Nc1nccs1)N1C(=O)c2ccccc2C1=O (configuration not stated),-0.6,.
Cc1ccc(C(=O)Nc2ccc(-c3noc(-c4cccc(Cl)c4)n3)cc2)cc1[N+](=O)[O-],.,-0.18
COCCCn1c(-c2c(C)oc3ccccc23)cs/c1=N\S(=O)(=O)c1ccccc1,-0.55,.
CC(NC(=O)CSCc1cnn(-c2ccccc2)c1-n1cccc1)c1ccccc1 (configuration not stated),0.7,-0.22
CSC1=NCCN1C(=O)c1ccc(Cl)cc1,.,0.075
O=S(=O)(NCc1cc(-c2ccccc2)no1)c1cccc(Cl)c1Cl,.,-0.745
CC(C)OCC1OC2OC(C)(C)OC2C2OC(C)(C)OC12 (configuration not stated),.,-0.335
O=C1S/C(=C/c2ccccc2Cl)C(=O)N1c1ccccc1,-0.65,-0.54
COc1ccc(-n2nc3ccc(NC(=O)c4ccc(-c5ccccc5)cc4)cc3n2)cc1,2.2,-1.29
O=C(O)c1cnn(-c2ccccc2)c1,-0.25,.
NC(=O)CSc1nc2c(sc3ccccc32)c(=O)n1CCCN1CCOCC1,-1,9.71
N#Cc1ccc(S(=O)(=O)NC2CCN(Cc3ccc4c(c3)OCCO4)C2)cc1 (configuration not stated),.,0.19
CCOC(=O)c1c(NC(=O)c2noc3c2CCCCC3)sc(C)c1C,1.15,1.09
O=C(O)c1cccc(N2C(=O)/C(=C\c3ccc4c(c3)OCO4)SC2=S)c1,0.7,-0.67
CC(=O)Nc1ccc(S(=O)(=O)NC(C)C2CCCCC2)cc1 (configuration not stated),.,-1.2
O=S(=O)(c1ccc(Cl)cc1)N1CCN(c2nc3ccccc3s2)CC1,.,-0.495
CCOC(=O)C(Sc1nnc(C(CC)N(C)C)n1Cc1ccccc1)c1ccccc1 (configuration not stated),1.4,.
c1ccc2c(c1)N1CCN2CC1,0.65,0.665
CSc1nnc(-c2ccncc2)n1-c1ccccc1C,2.6,.
COC(=O)CSc1ncnc2ccccc12,-0.3,.
O=C(O)C1CC(=O)N(CCc2ccc(Cl)cc2)C1 (configuration not stated),-0.65,0.545
COc1ccc(Oc2ccc3[nH]c4c(c3c2)CCCC4=O)cc1,-0.55,1.29
NC(=O)N/N=C1\CCCC1c1ccccn1 (configuration not stated),-1.2,.
COc1cccc(C2C(C#N)=C(N)Oc3n[nH]c(-c4ccc(C)cc4)c32)c1OC(=O)N1CCOCC1 (configuration not stated),.,0.16
COc1ccc2c3c([nH]c2c1)C(C)=NCC3,0.15,-0.09&-0.165
CC(=O)Nc1ccc(-c2nc3c(Cl)cccc3[nH]2)cc1,-0.35,64.3
Cc1cc2nc(NCC(C)O)c3ccccc3n2n1 (configuration not stated),-0.2,.
CCOC(=O)CSc1nc2cc3c(cc2c(=O)n1CCCC(=O)NCc1ccc(OC)cc1)OCO3,-0.95,1.72
CCN(c1ccccc1)S(=O)(=O)c1ccc2c(c1)N(C(C)=O)CC(C)O2 (configuration not stated),-1,0.125
O=C(O)CCCc1nc2cc3ccccc3cc2[nH]1,-0.25,.
O=C(O)CNc1ccc(C(=O)O)cc1,-0.6,1.65
Cc1ccccc1NC(=O)C1C2C3CCC(C3)C12 (configuration not stated),-0.05,-0.315

# Arranged by formula weight (low to high): some entries from above
SMILES,AID504770,CapD inh
O=C(O)CNc1ccc(C(=O)O)cc1,-0.6,1.65
NC(=O)N/N=C1\CCCC1c1ccccn1 (configuration not stated),-1.2,.
CSc1nnc(-c2ccncc2)n1-c1ccccc1C,2.6,.

# (continued)
SMILES,AID504770,CapD inh
Cc1ccc2c(CC(=O)NCC(C)C)coc2c1,1.8,.
C/C(=C(/C#N)P(=S)(N1CCOCC1)N1CCOCC1)N1CCCC1,-0.35,.
CC1=Cn2c(nc3ccccc3c2=O)CN1NC(=O)NC1CCCCC1,0.7,.
Cc1cc(NC(=O)c2ccc(N(C)C)cc2)no1,2.65,0.79
COc1ccc(C(=O)CSc2nnc(C3COc4ccccc4O3)n2-c2ccccc2)cc1 (configuration not stated),.,-0.27
CCOC(=O)C1=C(C)OC(N)=C(C#N)C12C(=O)Nc1ccc(C)cc12 (configuration not stated),-0.4,0.245
COc1ccc(C(=O)N(CC(=O)NC2CCCC2)C2CCCCC2)cc1OC,-0.25,.
CCOC(=O)c1c(CN(CC)CC)n(-c2ccccc2)c2cc(Br)c(O)cc12,.,0.035
CC(C)=C1C(=O)NN(c2ccccc2)C1=O,-0.8,-0.335
Cc1ccc(COc2ccc(-c3nccc(-c4cccs4)n3)cc2)cc1,.,0.11
CCCn1c(=N)n(CC(=O)C(C)(C)C)c2ccccc21,-0.15,.
CC1CCCC(C)N1CCCNC(=O)C1c2ccccc2C(=O)N1CCc1ccc(Cl)cc1 (configuration not stated),-0.65,3.99
Cc1cc(C)c(N=C(NN)N(C)C)cc1C,-0.65,0.38
O=C1NC(=Nc2ccccc2Cl)S/C1=C\c1ccc2c(c1)OCO2,.,-0.32
CC1=NN(c2ccc(F)cc2)C(=O)C1,.,-0.125
O=C(O)CCc1nc2ccccc2n1-c1ccccc1,-0.65,0.115
COc1ccccc1Oc1nc(-c2ccccc2)cc(C)c1S(C)(=O)=O,.,0.505
NC(=O)C1(NC2CCCCC2)CCCCC1,.,-0.32
COC(=O)C1=C(C)NC(=O)NC1c1cc2c(cc1Cl)OCO2 (configuration not stated),-0.55,0.64
COC(=O)c1sccc1N/N=C(\C#N)S(=O)(=O)c1cccs1,-0.2,-1.4

# A few values from the entries so far:
# CapD inh result of `Cc1ccc(COc2ccc(-c3nccc(-c4cccs4)n3)cc2)cc1` → 0.11
# CapD inh result of `CCOC(=O)c1c(CN(CC)CC)n(-c2ccccc2)c2cc(Br)c(O)cc12` → 0.035
# AID504770 result of `CCCn1c(=N)n(CC(=O)C(C)(C)C)c2ccccc21` → -0.15
# AID504770 result of `COc1ccc(C(=O)N(CC(=O)NC2CCCC2)C2CCCCC2)cc1OC` → -0.25

# The list goes on:
SMILES,AID504770,CapD inh
Cc1cc2oc(=O)cc(-c3cc4ccccc4o3)c2cc1OCC(N)=O,-0.5,.
Cc1ncc(CO)c(/C=N/O)c1O,0,83.4
C=CCn1c(P(=O)(O)c2ccccc2)nc2ccccc21,0.85,0.145
CCOC(=O)C1CCN(c2cc(C(F)(F)F)nc3ccc(C)cc23)CC1,-0.4,0.9
CCOC(=O)CN1C(=O)N(Cc2ccc(F)cc2)S(=O)(=O)c2ccccc21,-0.1,-0.12
CCCN(CCC)S(=O)(=O)c1ccc(F)c(C(=O)Nc2cc(C)ccc2OC)c1,2.35,-1.62
NC(=O)C1CCCN(C(=O)NC2CCCCC2)C1 (configuration not stated),0.25,0.285
N#Cc1nn(-c2ccc(Cl)cc2Cl)c(=O)cc1Oc1ccccc1,.,-0.71
CCc1ccc(NC(=O)c2ccccc2C(=O)O)cc1,-0.75,-0.99
CC(C#N)OC(=O)c1ccc(S(=O)(=O)N(C)C)cc1 (configuration not stated),1.2,.
COc1cc(/C=c2\sc3nc4cc(C)c(C)cc4n3c2=O)c(Br)cc1OCC(=O)O,1.25,2.39
O=C(CCCOc1ccccc1)N1CCN(Cc2ccc3c(c2)OCO3)CC1,-0.7,.
CCN(C(=O)c1cc2c(=O)n3ccccc3nc2n1C)C1CCCCC1,0.1,.
CCN(CCOC(=O)NNC(=O)CC1Sc2ccccc2NC1=O)c1cccc(C)c1 (configuration not stated),.,0.275
N#CC1(C#N)C(c2ccc(Cl)c(Cl)c2)C(C(=O)c2ccccc2)N2c3ccccc3C=CC21 (configuration not stated),.,0.36
COc1ccc(S(=O)(=O)N2CCN(C(c3ccc(OC)c(OC)c3)c3nnnn3C3CCCCC3)CC2)cc1 (configuration not stated),0,.
Cc1cc(N)n(-c2ccccc2)n1,.,0.27
CN(C)C(=O)Sc1nnc(C2CC2)n1-c1ccc(Cl)cc1,-0.9,0.015
CCCCCC1CC(CC(O)CO)C(=O)O1 (configuration not stated),.,-0.185
COC(CNC(=O)C1CCCN1C(=O)OCc1ccccc1)OC (configuration not stated),0.75,0.345
